Rango dissoc inh: qHTS Assay for Inhibitors of RanGTP induced Rango (Ran-regulated importin-beta cargo) - Importin beta complex dissociation; Potency, µM (titrated, usually from 46.1 µM), for inactives: at the highest dose activity change, negative = inhibition; Biochemical FRET Rango-importin beta, RanGTP-induced dissociation; Snurportin-1 (Homo sapiens) + GTP-binding nuclear protein Ran (Homo sapiens) + Importin …; AID 540253, 2011; hit rate 0.071% among 340,000; active means falling FRET ratio curve, often poorly fitted, with flat reads before Ran was added; inconclusive means other falling curves, or compound fluorescence or quenching; inactive means flat or rising ratio curve;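 further: potency means the concentration at half of the fitted maximal effect; % of control where 0% means no effect; nearly all actives have a fitted effect of over 45% in size; -100% = wells without RanGTP and RCC1; the record marks most hits as doubtful in a second field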
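Rango/importin beta premix (0.1/0.25 uM final), PBS + 1 mM DTT + 0.02% Tween-20 + 0.1% BSA; cpd 5 min RT; FRET pre-read; + RanGTP-RCC1 (0.6 uM Ran, 2 mM GTP, 0.2 uM RCC1); 45 min RT; FRET post-read, ex 430, em 486/530 nm.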
miR-21 FLuc: qHTS Assay for Modulators of miRNAs and/orActivators of miR-21; 340,000 tested, under 10 active; HeLa miR-21 FLuc reporter, luciferase, 48 h; Potency, µM (highest dose often 38.3 µM), inactives show top-dose reporter change, positive = more light; active = well fitted rising curve with a large enough effect; inconclusive = small, poorly fitted or top-dose-only effect; inactive = no such curve, though single readings can be large or run the other way;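 further: % of control where 0% means no effect; miR-21 action dims this reporter so a rising signal means less miR-21 action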
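Using DMEM plus 10% FBS, HeLa miR-21-FLuc cells are incubated with test compounds (final up to about 40uM) for 48 hours; firefly luciferase signal is then imaged following reagent-mediated lysis.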
Rango-impB inh: qHTS Assay for Inhibitors of Rango (Ran-regulated importin-beta cargo) - Importin beta complex formation. Rango CFP/YFP FRET sensor + importin beta, 45 min. Potency, µM (titrated, usually from 92.2 µM), inactives show at the top dose inhibition of complex formation. hit rate 0.031% among 340,000. AID 540263, 2011; active = rising FRET ratio curve, often small or poorly fitted; inconclusive = mostly compound fluorescence or quenching in the first reads; inactive = flat curves in all reads;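 further: potency means the concentration at half of the fitted maximal effect; 0% = DMSO wells and 100% = buffer wells lacking importin beta; nearly all actives have a fitted effect of over 15% in size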
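Inhibition scored from the CFP 486 nm/YFP 530 nm FRET ratio 45 min after adding 0.125 microM importin beta to 50 nM Rango biosensor preincubated 5 min with compound (room temperature, PBS with DTT, Tween-20, BSA). No-importin wells as positive control.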
GLA inh pH 4.5: qHTS Assay for Inhibitors of Human alpha-Galactosidase at pH 4.5; Alpha-galactosidase A (Homo sapiens), P06280; purified enzyme, 4-MU-alpha-Gal fluorescence, pH 4.5; activity change, negative = inhibition, % at 105 µM; 230,000 tested, under 10 active; inconclusive = small, poorly fitted or top-dose-only inhibition, or a rising curve; inactive = flat fitted curve, though single readings scatter; no compound was filed as active;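 further: 0% = full activity with enzyme and -100% = basal without enzyme; dose as in the result columns while the protocol names 77 µM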
Target sequence (P06280 whole entry, looked up): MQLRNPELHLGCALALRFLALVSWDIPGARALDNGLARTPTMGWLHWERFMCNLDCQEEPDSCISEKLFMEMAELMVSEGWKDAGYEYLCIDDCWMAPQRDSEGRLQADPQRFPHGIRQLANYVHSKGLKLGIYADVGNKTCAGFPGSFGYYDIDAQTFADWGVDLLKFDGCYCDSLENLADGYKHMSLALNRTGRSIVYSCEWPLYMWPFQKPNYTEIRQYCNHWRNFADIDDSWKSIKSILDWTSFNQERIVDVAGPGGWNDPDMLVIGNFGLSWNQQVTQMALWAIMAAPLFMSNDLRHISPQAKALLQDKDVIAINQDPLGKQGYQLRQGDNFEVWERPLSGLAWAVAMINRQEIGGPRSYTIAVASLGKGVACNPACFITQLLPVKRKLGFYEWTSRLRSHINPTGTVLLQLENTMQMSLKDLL
* = called active by the depositor. A portion of the library, so the mix of outcomes need not match the whole.

What do the screens show for `Cc1cccc(C)c1NC(=O)C1(N(C(=O)c2ccccn2)c2ccc(O)cc2)CCCCC1`?
Rango dissoc inh: 16%; miR-21 FLuc: 0%; Rango-impB inh: 0.8%; GLA inh pH 4.5: -23

Results for CCOc1ccc(CCNC(=O)c2cccc(S(=O)(=O)N3CCN(C(C)=O)CC3)c2)cc1OCC ?
Rango dissoc inh: -4%; Rango-impB inh: -1.0%

Results for O=C(CSc1ncn[nH]1)Nc1ncc(C(F)(F)F)cc1Cl ?
Rango dissoc inh: -9%; miR-21 FLuc: -3%; Rango-impB inh: -0.8%; GLA inh pH 4.5: -21

Results for Oc1ccc(-c2n[nH]c(C(F)(F)F)c2-c2ccccc2)c(O)c1 ?
Rango dissoc inh: 0%; miR-21 FLuc: 18%; Rango-impB inh: -0.2%; GLA inh pH 4.5: -1

What do the screens show for `COc1ccc(NS(=O)(=O)c2cccc(C(=O)N3CCN(c4ccccc4O)CC3)c2)cc1`?
Rango dissoc inh: 6%; Rango-impB inh: 1.3%

How did CCOC(=O)c1cnc(SCc2ccc(C(C)(C)C)cc2)nc1N do in these assays?
Rango dissoc inh: 3%; miR-21 FLuc: 0%; Rango-impB inh: -2.1%; GLA inh pH 4.5: -12

What do the screens show for `CC(OC(=O)Nc1ccccc1)C(=O)OC1CCCCC1` (stereo not drawn)?
Rango dissoc inh: 5%; Rango-impB inh: 0.5%

Results for COc1ccc(NC(=O)c2cc(-c3ccccc3)on2)cc1OC ?
Rango dissoc inh: 7%; miR-21 FLuc: -8%; Rango-impB inh: 0.7%

Results for COc1ccc(Cn2nnnc2CN2CCc3ccccc3C2)cc1 ?
Rango dissoc inh: 4%; miR-21 FLuc: -14%; Rango-impB inh: -0.9%; GLA inh pH 4.5: -1

How did O=C(CCNC(=O)c1ccco1)Nc1cccc(Br)c1 do in these assays?
Rango dissoc inh: -12%; miR-21 FLuc: 4%; Rango-impB inh: 5.6%; GLA inh pH 4.5: 0

How did CCc1nc(N2CCC3(CC2)OCCO3)c2nnn(Cc3ccccc3Cl)c2n1 do in these assays?
Rango dissoc inh: 1%; miR-21 FLuc: -1%; Rango-impB inh: 1.6%; GLA inh pH 4.5: -21

Results for COc1cc2c(cc1OC)-c1cc3ccc4c(c3c[n+]1CC2)OCO4 ?
Rango dissoc inh: inconclusive; miR-21 FLuc: 3%; Rango-impB inh: inconclusive; GLA inh pH 4.5: 0

What do the screens show for `CCS(=O)(=O)N1CCC(C(=O)Nc2cc([N+](=O)[O-])ccc2C)CC1`?
Rango dissoc inh: -9%; miR-21 FLuc: -1%; Rango-impB inh: 1.5%; GLA inh pH 4.5: 2

What do the screens show for `COc1ccc(C(=O)Nc2ccc(S(=O)(=O)Nc3nccc(C)n3)cc2)cc1`?
Rango dissoc inh: -13%; miR-21 FLuc: -5%; Rango-impB inh: -0.9%

How did CN(C(=O)CN1C(=O)NC(C)(CCc2ccccc2)C1=O)c1ccccc1 (stereo not drawn) do in these assays?
Rango dissoc inh: 8%; Rango-impB inh: 1.6%

What do the screens show for `O=[N+]([O-])c1ccc(O)c(/C=N/Nc2nn[nH]n2)c1`?
Rango dissoc inh: 3%; miR-21 FLuc: 0%; Rango-impB inh: 7.2%; GLA inh pH 4.5: -5

What do the screens show for `CC(C)(C)SCCNC(=O)c1ccc(Cl)c(S(=O)(=O)N2CCOCC2)c1`?
Rango dissoc inh: 17%; Rango-impB inh: 2.8%

How did Cc1c(Cl)cccc1NC(=O)CC1NCCNC1=O (stereo not drawn) do in these assays?
Rango dissoc inh: 43%; miR-21 FLuc: -2%; Rango-impB inh: -1.8%; GLA inh pH 4.5: 3

Results for COC(=O)C1=C(C)Nc2ncnn2C1c1ccccn1 (stereo not drawn) ?
Rango dissoc inh: -1%; miR-21 FLuc: 0%; Rango-impB inh: 0.9%; GLA inh pH 4.5: 2

How did CCOC(=O)C1=CN(Cc2cccc(F)c2)S(=O)(=O)N(CC)C1c1ccccc1 (stereo not drawn) do in these assays?
Rango dissoc inh: 8%; Rango-impB inh: 1.1%

What do the screens show for `CC1CCN(CCOc2ccccc2-c2ccccc2)CC1`?
Rango dissoc inh: 2%; miR-21 FLuc: -8%; Rango-impB inh: inconclusive; GLA inh pH 4.5: 2

What do the screens show for `N#C/C(=C\c1c[nH]c2ccccc12)C(N)=O`?
Rango dissoc inh: -7%; miR-21 FLuc: -14%; Rango-impB inh: -5.4%; GLA inh pH 4.5: -6

Results for Cc1cccnc1CN1CCN(C(=O)CCc2nnc(CCc3ccccc3)o2)CC1 ?
Rango dissoc inh: -5%; miR-21 FLuc: -34%; Rango-impB inh: -4.7%; GLA inh pH 4.5: 4

What do the screens show for `C/C(=N/NC(=O)c1ccc(Br)o1)c1cccc(NC(=O)c2ccc(F)cc2)c1`?
Rango dissoc inh: 0%; miR-21 FLuc: -20%; Rango-impB inh: 5.0%

How did COc1cccc(OC)c1C(=O)NCCSC1CCCCC1 do in these assays?
Rango dissoc inh: inconclusive; miR-21 FLuc: -5%; Rango-impB inh: -6.6%

What do the screens show for `C/C(=N\NC(=O)c1ccc(NS(=O)(=O)c2cccs2)cc1)c1ccncc1`?
Rango dissoc inh: -8%; miR-21 FLuc: -15%; Rango-impB inh: 2.3%; GLA inh pH 4.5: 3

What do the screens show for `CC(=O)C(=Cc1ccc(O)cc1)C(C)=O`?
Rango dissoc inh: 5%; miR-21 FLuc: -11%; Rango-impB inh: inconclusive; GLA inh pH 4.5: -6

What do the screens show for `CS(=O)(=O)n1nc(C(=O)N2CCOCC2)nc1N`?
Rango dissoc inh: 6%; miR-21 FLuc: 1%; Rango-impB inh: -0.5%; GLA inh pH 4.5: -16

How did Cc1ccccc1OCC(=O)NCCS(=O)(=O)N1CCN(c2ccc(F)cc2)CC1 do in these assays?
Rango dissoc inh: 8%; Rango-impB inh: 6.2%

What do the screens show for `Cn1c(CN2CCCCC2)c(C#N)c2ccccc21`?
Rango dissoc inh: inconclusive; miR-21 FLuc: -13%; Rango-impB inh: 1.2%; GLA inh pH 4.5: 4

The list goes on (four carried over from the part before).
What do the screens show for `CC(=O)C(=Cc1ccc(O)cc1)C(C)=O`?
Rango dissoc inh: 5%; miR-21 FLuc: -11%; Rango-impB inh: inconclusive; GLA inh pH 4.5: -6

What do the screens show for `CS(=O)(=O)n1nc(C(=O)N2CCOCC2)nc1N`?
Rango dissoc inh: 6%; miR-21 FLuc: 1%; Rango-impB inh: -0.5%; GLA inh pH 4.5: -16

How did Cc1ccccc1OCC(=O)NCCS(=O)(=O)N1CCN(c2ccc(F)cc2)CC1 do in these assays?
Rango dissoc inh: 8%; Rango-impB inh: 6.2%

What do the screens show for `Cn1c(CN2CCCCC2)c(C#N)c2ccccc21`?
Rango dissoc inh: inconclusive; miR-21 FLuc: -13%; Rango-impB inh: 1.2%; GLA inh pH 4.5: 4

How did Cc1nn(Cc2ccc([N+](=O)[O-])cc2)c(=O)n1-c1ccc(Cl)cc1 do in these assays?
Rango dissoc inh: -6%; miR-21 FLuc: 0%; Rango-impB inh: -2.5%; GLA inh pH 4.5: -3

How did Cc1cc(C)cc(NC(=O)CC2NCCNC2=O)c1 (stereo not drawn) do in these assays?
Rango dissoc inh: -11%; miR-21 FLuc: -1%; Rango-impB inh: 1.3%; GLA inh pH 4.5: 1

How did CCOC(=O)c1c(N)nn(C(=O)c2ccccc2)c1-c1ccccc1 do in these assays?
Rango dissoc inh: 26%; miR-21 FLuc: 0%; Rango-impB inh: 0.2%; GLA inh pH 4.5: 5

How did CCOC(=O)N1CCN(C(=O)CCN2C(=O)COc3ccc(C)cc32)CC1 do in these assays?
Rango dissoc inh: -9%; miR-21 FLuc: -4%; Rango-impB inh: 2.2%; GLA inh pH 4.5: -2

How did O=c1c(Cc2c(F)cccc2Cl)c(O)ccn1CCCn1ccnc1 do in these assays?
Rango dissoc inh: -5%; miR-21 FLuc: -1%; Rango-impB inh: 2.4%; GLA inh pH 4.5: 1

Results for Cc1c(-c2ccccn2)c(=O)[nH]n1-c1ccc(F)cc1 ?
Rango dissoc inh: -5%; miR-21 FLuc: 10%; Rango-impB inh: 0.4%; GLA inh pH 4.5: -2

How did CC(=O)NCCCc1nc2ccccc2n1Cc1ccc(C)cc1 do in these assays?
Rango dissoc inh: 4%; miR-21 FLuc: 0%; Rango-impB inh: -2.5%; GLA inh pH 4.5: 0

How did C[C@H]1COC(=O)[C@H](CC(=O)OC(C)(C)C)C/C=C\C[C@H](CC(=O)N(CCO)Cc2ccccc2)C(=O)N1 do in these assays?
Rango dissoc inh: 6%; Rango-impB inh: -0.2%

Results for NC(=O)c1ccsc1NC(=O)C1CCCN1S(=O)(=O)c1ccc(Cl)cc1 (stereo not drawn) ?
Rango dissoc inh: -9%; miR-21 FLuc: 0%; Rango-impB inh: -2.5%; GLA inh pH 4.5: 1

What do the screens show for `COc1cc(C(=O)NC2CCCc3c2cnn3-c2ccccc2F)cc(OC)c1OC` (stereo not drawn)?
Rango dissoc inh: -1%; miR-21 FLuc: 19%; Rango-impB inh: inconclusive

How did COC(=O)c1cn[nH]c1NC(=S)Nc1ccc(Cl)c(Cl)c1 do in these assays?
Rango dissoc inh: 23%; miR-21 FLuc: -42%; Rango-impB inh: 0.0%; GLA inh pH 4.5: -2

How did Cc1ccc(NC(=O)CSc2nnc(C)c(=O)n2N)cc1 do in these assays?
Rango dissoc inh: 0%; miR-21 FLuc: 1%; Rango-impB inh: 2.1%; GLA inh pH 4.5: 2

How did CCn1cc(C(=O)O)c(=O)c2cc(F)c(N3CCN(S(=O)(=O)c4ccc5c(c4)OCCO5)CC3)cc21 do in these assays?
Rango dissoc inh: -15%; miR-21 FLuc: -2%; Rango-impB inh: 0.7%; GLA inh pH 4.5: 2

Results for COc1ccc(NC(=O)NCc2ccccn2)c(OC)c1 ?
Rango dissoc inh: 0%; miR-21 FLuc: -4%; Rango-impB inh: -3.1%

What do the screens show for `CCOC(=O)C1CCCN(C(=O)CNC(=O)c2nn(-c3ccc(OC)c(Cl)c3)c(=O)c3ccccc23)C1` (stereo not drawn)?
Rango dissoc inh: 1%; miR-21 FLuc: 5%; Rango-impB inh: -0.7%

What do the screens show for `C=COCCNC(=O)Nc1ccc(Cl)c(Cl)c1`?
Rango dissoc inh: -5%; miR-21 FLuc: -22%; Rango-impB inh: 3.7%; GLA inh pH 4.5: 14

What do the screens show for `COc1ccc(NC(=O)CCCNC(=O)c2ccc(Cl)cc2)cc1OC`?
Rango dissoc inh: -4%; miR-21 FLuc: -4%; Rango-impB inh: 0.4%

What do the screens show for `Cc1cc(=O)[nH]c(N/N=C/c2ccc(O)c(O)c2)n1`?
Rango dissoc inh: 1%; miR-21 FLuc: 3%; Rango-impB inh: 4.2%

Results for Cc1cc(Cl)c(S(=O)(=O)N2CCCC2)cc1OCC(=O)NC1CCCCC1 ?
Rango dissoc inh: 2%; miR-21 FLuc: 26%; Rango-impB inh: -0.4%; GLA inh pH 4.5: 1

What do the screens show for `O=C(c1ccc(N2CCCCC2)c([N+](=O)[O-])c1)N1CCOCC1`?
Rango dissoc inh: 43%; miR-21 FLuc: -11%; Rango-impB inh: 12%; GLA inh pH 4.5: 2

What do the screens show for `CC12CCC(=O)N1C(C(=O)Nc1ccc(SC(F)F)cc1)CS2` (stereo not drawn)?
Rango dissoc inh: 8%; Rango-impB inh: 6.4%

Results for COCCn1c(=S)[nH]c2cc(C(=O)N3CCc4ccccc4C3)ccc2c1=O ?
Rango dissoc inh: -1%; miR-21 FLuc: 2%; Rango-impB inh: -1.7%; GLA inh pH 4.5: 0

How did CCCOc1cccc(C(=O)N(Cc2ccco2)C2CCS(=O)(=O)C2)c1 (stereo not drawn) do in these assays?
Rango dissoc inh: -8%; miR-21 FLuc: -11%; Rango-impB inh: -4.4%; GLA inh pH 4.5: -4

What do the screens show for `Cc1cc(C)n(CC(=O)N/N=C/c2c[nH]c3ccccc23)n1`?
Rango dissoc inh: -4%; miR-21 FLuc: -7%; Rango-impB inh: -0.4%; GLA inh pH 4.5: 2
